Screens as filed in PubChem.
TRPV1 potentiator = human TRPV1 potentiation | TRPV1-expressing cells, Fluo-8 calcium influx, capsaicin EC20 potentiation; host cell line not named in the record; control for the full effect not named in the record | potentiation, % at 8.33 µM | hit rate 0.02% among 320,000; active means potentiation above 80%; inconclusive means 30% to 80%; inactive means below 30%; further: 0% is about no effect
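TRPV1-expressing cells were cultured overnight at 35.5C and loaded with Fluo-8 calcium dye for 40 to 90 min at room temperature. After a 10 s baseline, compound was added and calcium influx was read kinetically for 3 min (ex 480/em 520 nm).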
ClpP mod = qHTS Assay for Activators of ClpP; ATP-dependent Clp protease proteolytic subunit (Bacillus subtilis (strain 168)), P80244; purified B. subtilis ClpP, FRET peptide cleavage, 20 min; Potency, µM (doses to about 57.5 µM), inactives show top-dose activity change, negative = active; hit rate 1.9% among 340,000; active = well fitted falling curve with a large enough effect; inconclusive = small, poorly fitted or top-dose-only effect; inactive = no such curve, though single readings can be large or run the other way; further: potency means the concentration at half of the fitted maximal effect; the source files actives as falling curves though it sought activators and does not explain the sign; nearly all actives have a fitted effect of over 65% in size; many hits overshoot -100%
Target sequence (P80244 whole entry, looked up): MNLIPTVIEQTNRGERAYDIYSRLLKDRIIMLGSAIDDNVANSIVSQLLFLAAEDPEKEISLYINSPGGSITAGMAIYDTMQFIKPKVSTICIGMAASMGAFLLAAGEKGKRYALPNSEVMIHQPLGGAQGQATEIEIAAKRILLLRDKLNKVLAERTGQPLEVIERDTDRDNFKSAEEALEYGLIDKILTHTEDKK
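Purified B. subtilis ClpP, 10 microg/mL final in Tris/HCl pH8 with KCl, BSA, glycerol and Tween-20, cleaved an Abz/nitrotyrosine-quenched decapeptide. Fluorescence (ex 320, em 430) was read at 0 and 20 min at room temperature. Delta was normalized to 5.8 microM ADEP and DMSO/no-enzyme controls.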
Sfp inh = inhibitors of Bacillus subtilis Sfp phosphopantetheinyl transferase | hit rate 3.5% among 310,000 | Biochemical Sfp PPTase activity, qHTS | Potency, µM, inactives show max response, negative = inhibition, actives largely listed as inhibitors | Q9F4F7; active means well fitted inhibition curve with a large enough effect; inconclusive means small, poorly fitted or top-dose-only effect, or another doubt; inactive means no such curve, though single readings can be large or run the other way;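 further: the enzyme is Sfp with the accession as filed and its product quenches rhodamine fluorescence; potency means the concentration at half of the fitted maximal effect; 0% = enzyme reaction without inhibitor and -100% = no enzyme wells; top concentration of the series not given in the record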
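Fluorescence-quenching assay: 15 nM Sfp-PPTase preincubated 15 min at room temperature with compound, then 5 uM rhodamine-CoA and 12.5 uM BHQ-2-labelled YbbR peptide added. Fluorescence (ex 525/em 598 nm) read at start and after 30 min; difference gives rate.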
Menin-MLL FL inh = displaces fluorescein MLL peptide from human menin | FP activity change, % at 61.4 µM | Fluorescence polarization, fluorescein-MLL peptide displacement from menin | 290,000 tested, under 10 active; inconclusive = falling polarisation curve, or a change in total fluorescence; inactive = total fluorescence flat and polarisation flat or rising; no compound was filed as active; the % refers to the polarisation; negative = inhibition;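 further: % of control where 0% means no effect; inhibitors lower the polarisation; unlabelled MLL peptide was the positive control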
TRPML1 agonist = human mucolipin-1 channel agonism; activation, % (concentration not given with the values); Q9GZU1; hit rate 0.12% among 410,000; TRPML1-expressing cells, Ca2+ dye fluorescence, FDSS; host cell line not named in the record; reference of the full effect not given here; in the data active = activation above about 50%; inconclusive = about 30% to 50%; inactive = below about 30%; further: 0% is about no effect; the text of the record puts the active cut at 80%
Target sequence (Q9GZU1 whole entry, looked up): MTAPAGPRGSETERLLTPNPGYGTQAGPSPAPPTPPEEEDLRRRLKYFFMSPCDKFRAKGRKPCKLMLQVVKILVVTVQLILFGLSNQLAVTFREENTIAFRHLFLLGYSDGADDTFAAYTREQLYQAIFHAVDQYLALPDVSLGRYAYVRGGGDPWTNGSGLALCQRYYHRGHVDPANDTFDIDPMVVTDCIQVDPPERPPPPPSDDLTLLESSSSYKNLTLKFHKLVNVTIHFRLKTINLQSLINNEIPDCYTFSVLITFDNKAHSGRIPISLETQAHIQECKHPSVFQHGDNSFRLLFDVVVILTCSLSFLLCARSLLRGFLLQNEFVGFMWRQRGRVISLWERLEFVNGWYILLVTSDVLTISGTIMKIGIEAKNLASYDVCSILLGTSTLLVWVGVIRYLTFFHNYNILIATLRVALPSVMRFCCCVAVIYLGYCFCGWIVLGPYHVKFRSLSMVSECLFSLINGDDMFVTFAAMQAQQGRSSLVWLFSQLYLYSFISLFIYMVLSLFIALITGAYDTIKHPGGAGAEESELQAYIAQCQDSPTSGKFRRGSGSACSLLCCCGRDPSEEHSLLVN
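Calcium fluorescence on an FDSS kinetic reader gave the read-out. Tet-induced TRPML1-DL cells were plated overnight, dye-loaded (Ca8 with quencher, 45-90 min, room temperature, dark), then read 110 s after compound addition, and again 110 s after 4uM final 54-4 (EC80).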
PINK1 modulator = PINK1 expression modulation. PINK1 immunofluorescence, high-content cytometry, 24 h. Potency, µM (titrated, usually from 76.6 µM), inactives show at the top dose activation (PINK1 increase), usual class: activators. hit rate 0.2% among 410,000; active = well fitted activation curve with a large enough effect; inconclusive = small, poorly fitted or top-dose-only effect; inactive = flat fitted curve, though single readings scatter; cell line not stated here;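 further: potency means the concentration at half of the fitted maximal effect; % of control where 0% means no effect; nearly all actives have a fitted effect of over 65% in size; a mitochondrial uncoupler was the plate control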
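Stable cell line, 250 cells/well, 12 h attachment; compounds pinned at 5 concentrations, 24 h; CCCP control. Fixed with nuclear dye, primary antibodies 12 h at 10 degrees C, secondary plus cell stain; laser-scanning cytometer read.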
TRPML1 blocker = human mucolipin-1 channel inhibition; Q9GZU1; TRPML1-inducible cells, Ca2+ dye fluorescence, FDSS; active compounds read low; inhibition of EC80 agonist-evoked calcium signal; activity change, negative = inhibition, % (no concentration beside the values); hit rate 0.02% among 390,000; AID 624415; in the data active means activity change below about -50%; inconclusive means about -30% to -50%; inactive means above about -30%;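 further: stimulus is agonist 54-4 at its EC80 concentration; on the % scale 0 is the no-effect control and ±100 the full control effect; compound concentration not given in the record; the text of the record puts the active cut at -80%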
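Tet-induced TRPML1-DL cells loaded with Ca8 no-wash calcium dye were read kinetically on FDSS. Compound addition was followed by EC80 agonist 54-4 (4 uM final); inhibition was read over 110 s.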
* marks the source's active call; other numbers are inactive results; u = inconclusive; x = no result given; & = joins results of further samples; [ ] = dose if it differs, or a comment.

SMILES	TRPV1 potentiator	ClpP mod	Sfp inh	Menin-MLL FL inh	TRPML1 agonist	PINK1 modulator	TRPML1 blocker
COc1ccc(OC)c(C2CC(=O)N(c3cccc(C)c3)C3=C2C(=O)OC3)c1 (configuration not stated)	x	-1.4%	x	x	0.3	0.5%	12
CN(CC(O)CN)CC(O)CN1CCCCC1 (configuration not stated)	-1	0.8%	-18%	1.5	-0.7	3.1%[38.3 µM]	14
Cc1cc(C)cc(C(=O)/C=C2\NC(=O)CS2)c1	-13	-5.3%	5%	3.4	-0.5	-1.6%	-21
O=C(Nc1ccc(CN2CCOCC2)cc1)c1ccc(Cl)cc1Cl	9	-4.2%	19%	3.6	0.5	0.8%	13
CCc1nc(Nc2ccc(N3CCN(C(C)=O)CC3)cc2)c2oc3ccccc3c2n1	-7	-0.6%	u	-1.5	-0.4	14%	-5
O=C(NCc1ccc(Cl)cc1)C1CCN(S(=O)(=O)c2ccc3c(c2)CCCN3C(=O)C2CCC2)CC1	x	0.2%	x	x	0.3	-1.7%	18
Cc1noc(COc2ccccc2OCC(O)CNC(C)(C)C)n1 (configuration not stated)	-5	1.1%	9%	6.1	-1.2	1.0%	8
O=c1c(Cc2ccc(Cl)cc2)c(O)ccn1Cc1ccccc1	9	1.2%	9%	2.2	-0.3	1.7%	27
CC(=O)OCC(=O)[C@@]1(O)CC[C@H]2[C@@H]3C[C@H](C)C4=CC(=O)C=C[C@]4(C)[C@H]3[C@@H](O)C[C@@]21C	-24	-1.9%	9%	-4.8	-0.2	-0.2%	9
COc1ccc(C(=O)NCCSc2c[nH]c3ccccc23)cc1OC	x	-1.4%	x	x	1.3	2.3%	45
Fc1ccc(-c2cc(-c3ccc(F)cc3)c3c(n2)-c2cc(F)ccc2OC3)cc1	x	u	x	x	-0.4	1.2%	2
CN(CCOc1ccccc1)C(=O)c1cc(COc2c(F)cccc2F)on1	-13	0.8%	5%	-1.2	3.8	0.3%	-3
c1ccc2c(c1)CCCC2NC1=NCCC1 (configuration not stated)	-2	-1.4%	4%	2.0	-0.1	1.5%	5
CN(CC(O)COc1ccc2ccccc2c1)C1CCCCC1 (configuration not stated)	0	0.3%	9%	0.3	-0.2	4.8%	2
Cc1cccc(N(CC(=O)NCCSCc2ccccc2)S(C)(=O)=O)c1C	-3	x	18%	1.8	1.9	0.5%	-9
COc1ccc(C(=O)Nc2cc(C)on2)cc1OC	3	-2.2%	6%	-0.5	-0.6	1.7%	49
CC(CCCc1ccccc1)NC(=O)c1nn(-c2ccc(Cl)cc2)nc1CO (configuration not stated)	x	32µM*	x	x	2.5	1.3%	-17
O=C(NC1CCN(Cc2nnnn2CCc2ccccc2)CC1)c1ccccc1F	-7	-0.9%	-10%	3.6	-0.5	-1.7%	-4
CN(Cc1nc2ccccc2n1C)C(=O)c1cccs1	7	-1.4%	22%	-0.8	-0.3	0.0%	-3
c1ccc(COn2c(-c3ccccc3)nc3c2CCc2nonc2-3)cc1	-12	-0.8%	9%	3.8	1.1	3.0%	-19
CC12CN3CC(C)(CN(C1)C3c1ccc(Br)cc1)C2 (configuration not stated)	-3	-1.2%	11%	-1.2	-0.5	-4.2%	-3
CC(=O)Oc1ccc(N2C(=O)C3C4C=CC(O4)C3C2=O)cc1 (configuration not stated)	11	-0.6%	35µM*	2.3	0.3	2.2%[38.3 µM]	1
CS(=O)(=O)N(CC(=O)NC1CCCCCC1)Cc1ccc(Cl)cc1	-3	1.0%	17%	3.1	0.0	1.8%[38.3 µM]	7
COCCn1c(N)c(C(=O)NCc2cccs2)c2nc3ccccc3nc21	-11	32µM*	-15%	7.9	-0.2	-9.0%[38.3 µM]	7
Cc1ccc(NC(=O)CSc2nnc(-c3ccncc3)s2)cc1	7	x	-10%	-7.8	-0.3	21%	3
CC(=O)c1c(C)[nH]c(C(=O)OC(C)C(=O)Nc2ccc(C)c(S(=O)(=O)N3CCOCC3)c2)c1C (configuration not stated)	-8	1.1%	x	x	-0.6	5.3%	25
CN(C)CCCCOc1cccc(Br)c1	-19	1.2%	56µM*	-0.3	-1.0	-1.9%	9
O=S(=O)(NCCc1cn2ccccc2n1)c1ccc(F)c(C(F)(F)F)c1	6	-4.9%	10%	1.3	0.3	-0.1%	1
Cc1ccc(C(=O)OCc2nnc(-c3ccccc3)o2)o1	0	-0.5%	-9%	5.0	-0.9	3.7%	-2
CCCCN(CCCC)CCCNC(=O)c1ccc2nc(-c3ccccc3NC(C)=O)c(=O)[nH]c2c1	7	-24%	15%	0.0	-0.5	-0.2%	-5
N#Cc1ccccc1OCC(=O)OCC(=O)NC1CCCCCC1	-4	1.6%	x	x	0.1	-1.4%	6
CCN(CC)Cc1c(O)ccc2c(-c3ccccc3)cc(=O)oc12	-3	-9.2%	-2%	1.5	0.9	-0.4%	1
Cc1ccc2[nH]c3c(=O)n(N)c(=O)[nH]c3c2c1	7	x	15%	u	0.7	0.1%	-7
CC(C)CCNC(=O)c1cccc(S(=O)(=O)N2CCc3ccccc32)c1	-3	-0.2%	-7%	-0.5	1.4	-0.3%	-5
Cc1nc(-c2ccc(Cl)cc2)sc1C1(C)CC(c2c(Cl)cccc2Cl)=NO1 (configuration not stated)	-2	10µM*	0%	1.6	-0.9	5.4%	39
COc1ccc(C(=O)NCCN2CCOCC2)c(OC)c1OC	7	-1.5%	0%	4.5	-0.4	-0.7%	24
CCNc1nc(NCC)nc(OCCNS(=O)(=O)c2ccccc2)n1	-2	x	12%	-1.1	1.0	3.4%	-2
CCCCNc1nc(Oc2ccc(OCC(N)=O)nn2)nc(N2CCOCC2)n1	x	1.5%	x	x	4.3	2.7%	11
CN1CCN(S(=O)(=O)c2cccc(C(=O)Oc3ccccc3Cl)c2)CC1	-9	1.4%	2%	x	0.6	3.4%	-5
CCCn1ncc(CN2CCC(Oc3ccc(C(=O)N4CCCC4)cc3)CC2)c1C	3	-2.0%	14%	1.6	-0.6	-0.7%	0
Cc1cccnc1NC(=O)c1ccc(Cl)c(S(=O)(=O)N2CCCCC2)c1	-12	-1.7%	x	x	-0.4	-1.4%	-11
COc1cc(OC)cc(-c2nnc(SCC(=O)N(C(C)C)C(C)C)o2)c1	16	-0.3%	1%	2.2	0.0	u	-3
O=C(COc1cccc(C(F)(F)F)c1)NNC(=O)Cc1ccc(S(=O)(=O)N2CCOCC2)s1	1	-0.1%	x	x	-0.4	1.7%	-5
CCOC(=O)c1c(C)[nH]c(C(=O)N(C)Cc2cccc(OC)c2OC)c1C	0	x	-8%	-5.3	0.6	4.4%	5
O=C(CN1C(=O)CCC1=O)Nc1ccc(Br)cc1	-18	-0.2%	11%	-1.0	-0.9	-1.2%	-3
COc1ccc(NC(=O)c2ccc3c(c2)N(Cc2cccc(Cl)c2)C(=O)c2ccccc2S3(=O)=O)cc1Cl	x	-3.2%	x	x	4.5	2.9%	-8
COc1ccc(S(=O)NC2CCCCC2)c(OC)c1C (configuration not stated)	-1	-0.3%	50µM*	2.1	0.4	-2.5%	5
CON(C)c1nc(NCC(C)C)nc(OCC#N)n1	16	0.7%	22%	1.6	0.9	1.2%	0
CC(=O)N(C1=C(O)c2ccccc2C(=O)C1=O)C1CCCCC1	4	2.8%	8%	-0.2	0.2	1.4%[38.3 µM]	10
COC(=O)c1c(-c2ccccc2)c(-c2ccccc2)nn(C)c1=O	4	-2.0%&-0.9%	18%	-1.9	1.3	-1.2%&-0.7%	-5
CCN(c1ccccc1)S(=O)(=O)c1ccc(OC)c(NC(=O)c2cccs2)c1	-10	x	13%	5.1	0.2	0.1%	-4
Cc1nn(CC(=O)N2CCOCC2)c(=O)c2nn(-c3ccccc3)c(C)c12	-5	-2.4%	-6%	-10	-0.4	-0.5%	-14
Cc1ccc(C(=O)NCCNC(=O)c2ccco2)cc1C	8	x	-6%	-2.2	-0.3	0.8%	8
COCCOc1ccc(C(F)(F)F)cc1NC(=O)c1ccc(F)cc1	-4	-8.3%	-2%	7.5	0.5	11%	-3
CCN1CCN(c2oc(-c3ccc(COc4ccc(OC)cc4)o3)nc2C#N)CC1	x	4.6%	x	x	0.3	-1.4%	51
CCn1cc(C2=NOC(C(=O)O)C2)c(C)n1 (configuration not stated)	-9	2.2%	10%	-1.2	-0.1	4.5%[38.3 µM]	-13
N#Cc1ccccc1NC(=O)COC(=O)COc1ccccc1[N+](=O)[O-]	-2	x	-2%	35[activator]	0.0	0.2%	15
CCN(CC)S(=O)(=O)c1csc(C(=O)NCc2ccccc2)c1	10	-1.1%	12%	7.0	0.8	-1.2%	6
COc1ccc(NC(=O)c2cc3ccccc3o2)cn1	-19	0.7%	11%	2.2	0.6	0.1%	5
COc1ccccc1C(=O)NCC(=O)N/N=C(\C)Cc1ccccc1	3	-1.8%	7%	-0.1	-0.3	1.4%	2
Cc1cc(NC(=O)CCC(=O)N(CC(C)C)C(C(=O)NC(C)(C)C)c2ccccc2Cl)no1 (configuration not stated)	-6	x	14%	-3.6	0.7	-0.2%	11
Cc1cccc(CCNC(=O)CCNS(=O)(=O)c2cc(Br)cnc2N)c1	1	-23%	5%	x	1.0	0.4%	2

Reformatted in markdown: entries from further up
| Structure | TRPV1 potentiator | ClpP mod | Sfp inh | Menin-MLL FL inh | TRPML1 agonist | PINK1 modulator | TRPML1 blocker |
| --- | --- | --- | --- | --- | --- | --- | --- |
| c1ccc2c(c1)CCCC2NC1=NCCC1 (configuration not stated) | -2 | -1.4% | 4% | 2.0 | -0.1 | 1.5% | 5 |
| CON(C)c1nc(NCC(C)C)nc(OCC#N)n1 | 16 | 0.7% | 22% | 1.6 | 0.9 | 1.2% | 0 |
| CC(C)CCNC(=O)c1cccc(S(=O)(=O)N2CCc3ccccc32)c1 | -3 | -0.2% | -7% | -0.5 | 1.4 | -0.3% | -5 |
| CC(=O)Oc1ccc(N2C(=O)C3C4C=CC(O4)C3C2=O)cc1 (configuration not stated) | 11 | -0.6% | 35µM* | 2.3 | 0.3 | 2.2%[38.3 µM] | 1 |
| N#Cc1ccccc1OCC(=O)OCC(=O)NC1CCCCCC1 | -4 | 1.6% | x | x | 0.1 | -1.4% | 6 |
